Source: PubChem
Cruzain inh noDet: inhibitors of Trypanosoma cruzi cruzain without detergent | hit rate 2.3% among 200,000 | purified cruzain, Z-FR-AMC fluorescence, no detergent | AID 1476 | Potency, µM, for the others: max response, negative = inhibition, actives largely listed as inhibitors;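 note: plate controls were enzyme without inhibitor for no effect and buffer without enzyme for full effect; nearly all actives have a fitted effect of over 40% in size; top concentration of the series not given in the record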
Target sequence (P25779 123-467 limits assumed): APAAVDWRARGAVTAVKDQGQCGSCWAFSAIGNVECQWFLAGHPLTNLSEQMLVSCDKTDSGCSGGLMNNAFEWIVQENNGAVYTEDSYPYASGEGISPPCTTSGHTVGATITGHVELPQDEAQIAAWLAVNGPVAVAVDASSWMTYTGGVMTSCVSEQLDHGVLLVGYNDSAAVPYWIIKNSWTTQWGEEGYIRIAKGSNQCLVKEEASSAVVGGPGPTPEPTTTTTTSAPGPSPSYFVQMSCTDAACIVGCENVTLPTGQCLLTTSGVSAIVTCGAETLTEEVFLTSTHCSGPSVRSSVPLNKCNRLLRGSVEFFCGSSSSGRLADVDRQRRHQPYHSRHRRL
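Purified cruzain at 1.5 nM, pre-incubated 15 min with compound at room temperature in 100 mM sodium acetate pH 5.5, 5 mM DTT, 0.00005% Triton X-100. Reaction started with 2 uM Z-FR-AMC; AMC fluorescence increase over 60 s gives rate.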
SARS PLpro yeast: SARS-CoV PLP inhibition in yeast; hit rate 0.19% among 330,000; Potency, µM (highest dose often 32.9 µM), for the others: at the highest dose activity, positive = growth rescue; AID 485353; S. cerevisiae expressing SARS-CoV PLpro, growth rescue; control for the full effect not named in the record; active means well fitted rising curve with a large enough effect; inconclusive means small, poorly fitted or top-dose-only effect; inactive means no such curve, though single readings can be large or run the other way; note: 0% is about no effect; nearly all actives have a fitted effect of over 55% in size; growth read by luminescence after 48 h
MARV entry inh: inhibitors of Marburg virus binding or cell entry. hit rate 1.8% among 300,000. Potency, µM (highest dose often 37.8 µM), inactives show at the top dose activity change, negative = inhibition, hits mostly inhibitors. Marburg virus pseudotyped entry inhibition, cell reporter; control for the full effect not named in the record; about a third of the inactives were read at about 46 µM. AID 540276; active = well fitted inhibition curve with a large enough effect; inconclusive = small, poorly fitted or top-dose-only effect, or effect the other way; inactive = flat fitted curve, though single readings scatter; tested in HEK293 cells; about a fifth of its hits are not listed in these tables; note: % is set by controls: 0 for no effect and ±100 for the full control effect; luciferase read-out
RE007 growth inh: less growth of the S. pombe RE007 Vpr strain; hit rate 0.21% among 360,000; Potency, µM (titrated, usually from 92.2 µM), without a hit: at the top dose activity change, negative = less growth; AID 651644; S. pombe RE007 Vpr strain, BacTiter-Glo ATP luminescence, 24 h; control for the full effect not named in the record; active = well fitted falling curve with a large enough effect; inconclusive = small, poorly fitted or top-dose-only effect; inactive = no such curve, though single readings can be large or run the other way;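 note: % is set by controls: 0 for no effect and ±100 for the full control effect; nearly all actives have a fitted effect of over 50% in size; the assay follows cell death caused by Vpr and the record does not say whether a fall means rescue or toxicity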
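Fission yeast RE007 carrying one integrated HIV-1 vpr copy, seeded at OD 0.01 in PMG+AL medium with 23 nL pinned compound. Grown 24 h at 30 degrees; viability read by BacTiter-Glo luminescence after 5 min.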
StopGo reporter: FMDV 2A StopGo reporter, luciferase signal; Potency, µM (top dose mostly 57.9 µM), inactives show at the highest dose signal change, negative = less light; human cells with a luciferase reporter of 2A StopGo recoding; control for the full effect not named in the record; hit rate 1.2% among 410,000; AID 1159524; active = well fitted falling curve with a large enough effect; inconclusive = small, poorly fitted or top-dose-only effect; inactive = no such curve, though single readings can be large or run the other way; tested in HEK293T cells; note: % is set by controls: 0 for no effect and ±100 for the full control effect; nearly all actives have a fitted effect of over 45% in size; luciferase light after 4 h
NS1 function inh: blocks influenza NS1 protein function. S. cerevisiae slowed by influenza A NS1, growth recovery by OD600. hit rate 0.4% among 270,000. AID 2326. Potency, µM (highest dose often 46.1 µM), for the others: at the top dose activity, positive = more growth; active means well fitted rising curve with a large enough effect; inconclusive means small, poorly fitted or top-dose-only effect; inactive means no such curve, though single readings can be large or run the other way; note: nearly all actives have a fitted effect of over 50% in size
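Read-out: OD600 growth recovery of NS1-expressing budding yeast. Cells grown overnight at 30C in -URA glucose medium, washed, resuspended and diluted 1:100 in 2% galactose assay medium, pH 6.0. Same strain lacking NS1 served as positive control.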
LASV entry inh: blocks Lassa virus binding to or entry into cells; AID 540256; Potency, µM (top dose mostly 37.9 µM), without a hit: at the highest dose activity change, negative = inhibition, usual class: inhibitors; Lassa virus pseudotype entry inhibition, cell reporter; control for the full effect not named in the record; hit rate 1.2% among 300,000; active means well fitted inhibition curve with a large enough effect; inconclusive means small, poorly fitted or top-dose-only effect, or effect the other way; inactive means flat fitted curve, though single readings scatter; tested in HEK293 cells; note: % is set by controls: 0 for no effect and ±100 for the full control effect; nearly all actives have a fitted effect of over 50% in size; luciferase read-out
Cruzain Triton: inhibitors of Trypanosoma cruzi cruzain with detergent | P25779 | purified cruzain, Z-FR-AMC fluorescence, 0.01% Triton | Potency, µM, without a hit: max response, negative = inhibition, most hits filed as inhibitors | hit rate 0.43% among 200,000;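 note: plate controls were neutral wells for no effect and buffer without enzyme for full effect; nearly all actives have a fitted effect of over 40% in size; top concentration of the series not given in the record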
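Cruzain (1.5 nM) preincubated 15 min at RT with compound in 100 mM sodium acetate pH 5.5, 5 mM DTT, 0.01% Triton X-100. Reaction started with 2 uM Z-FR-AMC; AMC fluorescence (ex 360/em 450 nm) change over 60 s gave rate.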
An asterisk follows results filed as active; ? = inconclusive; / = not tested or not shown; [ ] = remark or other dose. Unless noted, calls come from the whole dose curve; as a rule, active = well fitted curve in the direction sought with a large enough effect; inconclusive = small, poorly fitted or top-dose-only effect, or another doubt; inactive = no such curve, though single readings can be large; an effect the other way counts as inactive or inconclusive. Potency is the fitted concentration of half-maximal effect.

SMILES	Cruzain inh noDet	SARS PLpro yeast	MARV entry inh	RE007 growth inh	StopGo reporter	NS1 function inh	LASV entry inh	Cruzain Triton
O=C(CN1CCC(NC(=O)Cc2ccccc2)CC1)Nc1ccccc1Br	-6%	7%	7%	7%	?	7%	?	1.9%
Cc1ccc(NC(=O)CSc2nc3n[nH]c(C)c3c(=N)n2-c2ccccc2C)cc1C	8%	/	/	/	?	/	?	-4.1%
COc1ccc(N2CCN(C(=S)Nc3cccc(OC)c3)CC2)cc1	/	3%	1%[46.1 µM]	4%	14%	-1%	25%[46.1 µM]	/
O=C(NC(=S)NCCCN1CCOCC1)c1cccc2ccccc12	/	-2%	6%[46.1 µM]	-5%	-2%	/	?	/
COc1ccc(NC(=O)Nc2ccccc2F)c(C)c1	/	-1%	-10%[46.1 µM]	5%	26%	4%	6%	/
NC(=S)N/N=C/c1coc2ccccc2c1=O	-16%	-26%	/	-2%	-12%	-34%	/	-17%
COc1ccc2c3c(cccc13)N(C)N=C2C	-11%	6%	7%	-23%	-16%	-1%	1%	4.3%
O=C(NC(=O)c1ccccc1)OCCN1C(=O)c2ccccc2C1=O	/	-7%	3%[46.1 µM]	-6%	-2%	/	12%	/
O=C(c1ccccc1)N1CCC(O)(c2ccc3c(c2)OCO3)CC1	-7%	3%	4%	21%	0%	5%	7%	-1.9%
O=[N+]([O-])c1ccc(Nc2ccc(Cl)cc2)nc1	/	0%	?	-3%	9%	0%	-12%[46.1 µM]	/
CCN1CCN(c2ncc3c(n2)CCN(Cc2sccc2C)C3)CC1	2%	/	/	/	-2%	/	-26%[46.1 µM]	-2.9%
CN(C)CC(C(=O)Cc1ccccc1)c1ccccc1 (configuration not stated)	/	/	?	?	28µM*	/	-1%[46.1 µM]	/
O=C(CSc1ncn(-c2ccccc2)n1)N1CCc2ccccc21	-11%	-5%	-2%	-7%	16%	-7%	-5%	-1.5%
CC1(C)COC(Cn2c3ccccc3c3ccccc32)O1 (configuration not stated)	/	-3%	?	-18%	-27%	-81%	-10%[46.1 µM]	/
O=C(CN(c1ccc(Cl)c(C(F)(F)F)c1)S(=O)(=O)c1ccccc1)Nc1cccnc1	?	/	/	/	-11%	/	-19%[46.1 µM]	-11%
O=C(CSc1nnc(COc2ccc(Cl)cc2)o1)N1CCN(c2ccccc2)CC1	-2%	4%	/	0%	-13%	?	/	-8.5%
COC1=NC2=NCCN2C(OC)=N1	/	/	-8%[46.1 µM]	-8%	-1%	/	-3%[46.1 µM]	/
C/C(=N\Nc1ncc(Cl)cc1Cl)c1ccccn1	/	23%	0.89µM*	22µM*	5.6µM*	/	?	/
Cc1ccccc1NC(=O)Cn1c(=O)n(CCC(=O)N2CCc3ccccc3C2)c(=O)c2ccccc21	-10%	/	11%[46.1 µM]	/	12%	/	2%[46.1 µM]	-1.6%
Cc1noc(C)c1CSCC(=O)Nc1cc(C(F)(F)F)ccc1N1CCOCC1	/	4%	-18%	-3%	0%	/	-3%	/
O=C(Oc1cccc2cccnc12)c1cccs1	-3%	-37%	-6%	5µM*	0%	-148%	?	1.6%
NC(=O)c1ccc(C(=O)N/N=C(/Cc2ccccc2)c2ccccc2)cc1	/	4%	6%	5%	49%[activator]	-4%	-24%	/
COc1cccc(-c2nnn(CCC(=O)O)n2)c1	-3%	1%	-25%	-11%	4%	-5%	2%	-2.1%
O=C1C2CCCN2C(c2cccnc2)N1c1cccc(Cl)c1 (configuration not stated)	-1%	2%	/	1%	-16%	3.5µM*	/	-5.7%
O=C(COC(=O)CCSc1ccc(F)cc1)NCc1ccc(F)cc1	/	-1%	7%	16%	-7%	/	12%	/
CCCN(C(=S)Nc1ccccc1)C1CCS(=O)(=O)C1 (configuration not stated)	3%	-1%	-2%	13%	-10%	-7%	-9%	3.6%
Cc1cccc(CSc2nc3c(sc4ccccc43)c(=O)n2CCC(=O)NC(C)C)c1	-4%	/	13%[46.1 µM]	/	-24%	/	22%[46.1 µM]	3.7%
O=C(O)c1cc(NCc2ccc(F)cc2)ccc1N1CCOCC1	-13%	2%	18%	-9%	-22%	-13%	4%	1.1%
CCc1cc2c(NC(Cc3ccccc3)C(=O)O)ncnc2s1 (configuration not stated)	/	-1%	/	4%	-13%	25%	/	/
c1cc2nncn2nc1N1CCCC1	5%	16%	1%[46.1 µM]	-16%	-16%	1%	1%	2.0%
COc1ccc(-c2[nH]ncc2CN(C)CCc2c(C)n[nH]c2C)c(F)c1	/	1%	-6%[46.1 µM]	7%	3%	4%	-7%[46.1 µM]	/
Cc1ccc(S(=O)(=O)NNC(=O)CC#N)cc1	/	2%	/	23%	7%	0%	/	/
COc1ccc(S(=O)(=O)NCc2cc(=O)n(C)c(=O)n2C)cc1C	/	-2%	/	140%	0%	3%	/	/
NS(=O)(=O)c1cccc(NC(=O)COC(=O)Cc2ccc(S(=O)(=O)N3CCOCC3)s2)c1	/	/	-6%	-6%	-22%	/	2%	/
Nc1ccc2c(c1)CC(=O)c1ccccc1S2	0%	-9%	?	-6%	0%	-11%	?	0.3%
O=C(Nc1ccccn1)C(F)(F)C(F)(F)C(F)(F)C(F)(F)C(=O)Nc1ccccn1	-7%	-29%	18%	15%	?	1%	1%	-2.6%
CCC(=O)N1CCc2cc(S(=O)(=O)CCC(=O)NC(C)CC)ccc21 (configuration not stated)	/	1%	-5%	8%	-19%	/	-2%	/
CC(Oc1ccccc1)c1ccnc2nc(/N=C/N(C)C)nn12 (configuration not stated)	17%	7%	3%	3%	2%	-9%	7%	8.5%
CC(C)c1ccc(C(=O)NNC(=O)C2CC=CCC2C(=O)O)cc1 (configuration not stated)	0%	11%	?	-13%	20%	-6%	18%	0.2%
COc1ccccc1NC(=O)C1CCCN1S(=O)(=O)c1ccc(Cl)cc1 (configuration not stated)	/	1%	?	-14%	-28%	-14%	?	/
CCOc1ccc(NC(=O)Cn2cc(C(=O)c3ccc(F)cc3)c(=O)c3cc4c(cc32)OCO4)cc1	-9%	/	-17%[46.1 µM]	/	-23%	/	8%[46.1 µM]	-2.0%
Cc1cc(C)n(-c2ccc(C(=O)Nc3ccc(C)c(S(=O)(=O)N4CCOCC4)c3)cc2)n1	/	0%	10µM*	22%	14µM*	0%	?	/
COc1ccc(Nc2cc(C(=O)NCCCN3CCOCC3)c3ccccc3n2)c(OC)c1	5%	2%	?	-4%	-9%	8%	-1%	-5.8%
CCOc1ccc(C(=S)N2CCCC2)cc1	-5%	-3%	4%	-12%	26%	3%	19%	-1.6%
CC1(C)Cc2c(c(N3CCOCC3)nc3snc(NC(=O)c4ccccc4)c23)CO1	-1%	-12%	-6%	2%	-24%	-6%	7%	-1.3%
COCCNC(=O)c1ccc2ccccc2n1	3%	-3%	28%	2%	7%	-9%	1%	0.4%
Cc1ccc2oc(=O)c(S(=O)(=O)c3ccc(F)cc3)cc2c1	-9%	/	1%[46.1 µM]	/	-9%	/	-2%[46.1 µM]	-2.9%
CC(NC(=O)c1ccc(F)cc1)c1nc2ccccc2[nH]1 (configuration not stated)	-12%	/	5%[46.1 µM]	/	6%	/	9%[46.1 µM]	-26%
CCc1ccccc1N(CC(=O)NC(C)(C)C)C(=O)CCC(=O)Nc1ccccn1	/	3%	/	-2%	10%	6%	/	/
O=C(Nc1cccnc1)c1cc(-c2cc(Cl)ccc2O)n[nH]1	/	0%	/	5%	32%[activator]	3%	/	/
Cc1cnc(C(=O)OCC(=O)c2ccc(F)c(F)c2)cn1	/	3%	-2%[46.1 µM]	7%	-11%	/	9%	/
COc1ccc2nc(SCc3ccccc3)nc(C)c2c1	23%	17%	?	-7%	20%	-4%	?	-2.6%
CN1CCN(c2ccc(S(=O)(=O)N3CCCCC3)cc2NC(=O)/C=C/c2ccc(Cl)c([N+](=O)[O-])c2)CC1	/	-3%	?	4%	?	/	13µM*	/
O=C(Nc1cccc(C(F)(F)F)c1)c1scc2c1OCCO2	/	-5%	?	1%	52%[activator]	/	14%	/
Cc1ccc(-c2nc3ccccc3o2)cc1NC(=S)NC(=O)c1cccs1	?	3%	1%	-5%	38%[activator]	-3%	-1%	-3.2%
Cc1cc(C)n(-c2nc(SCCN(C)C)c3c4c(sc3n2)COC(C)(C)C4)n1	-2%	-3%	?	-6%	-9%	6%	?	0.8%
COc1ccc(S(=O)(=O)CC(=O)Nc2nnc(C(F)(F)F)s2)cc1	/	2%	/	-1%	-21%	13%	/	/
Cn1/c(=N/NC(=O)c2cccc(OC(F)F)c2)sc2ccccc21	?	-11%	?	2%	-5%	-4%	?	-5.2%
COc1ccc2[nH]c3c(c2c1)CCN1C(=O)C(CC(=O)NCCCN(C)C)C[C@H](C(=O)N2CCCCC2)[C@@]31CCc1ccccc1 (some centres not stated)	/	-4%	0%	10%	-11%	/	/	/
O=C(COc1ccc(Cl)cc1Cl)NN1C(=O)/C(=C\c2ccc(Cl)cc2)SC1=S	/	5%	18%[46.1 µM]	2%	1%	/	-11%[46.1 µM]	/

Carrying on.
SMILES	Cruzain inh noDet	SARS PLpro yeast	MARV entry inh	RE007 growth inh	StopGo reporter	NS1 function inh	LASV entry inh	Cruzain Triton
Cc1ccc(SCc2nc(-c3ccccc3)no2)cc1	7%	-6%	5%	-14%	-2%	0%	23%	-0.8%
COc1ccc(NC(=O)CN(C)C(=O)c2cn(-c3ccccc3)nc2-c2cccs2)cc1	/	0%	-12%	1%	-2%	/	-1%	/
NC(=O)CS(=O)(=O)c1ccc(Cl)cc1	/	0%	3%[46.1 µM]	5%	-2%	1%	3%[46.1 µM]	/
CC1CC(C(F)(F)F)n2ncc(C(=O)O)c2N1 (configuration not stated)	-5%	-2%	-9%	0%	-23%	-14%	2%	-3.2%
CCOC1OC2C(CO)OC(n3cnc4c(N)ncnc43)C2O1 (configuration not stated)	-7%	2%	?	10%	-14%	4%	-8%	-0.6%
